CapD inh = CapD enzyme inhibition | purified CapD enzyme, fluorescence intensity read-out; hits give low values; some hits fall short of the stated cut | z-score (concentration not given with the values) | actives 0.23% (n = 140,000);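 active = z-score under -4 in either of two replicates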;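 note: stock transfer was 100 nL into about 40 µL; score is relative to mean and spread of the plate; one replicate is shown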
AID504770 = E. coli YBA685 growth inhibition, screen for V. cholerae RctB inhibitors. z-score (concentration not given with the values). AID 504770. E. coli YBA685 rctB-dependent plasmid, OD600 growth, 3 h; hits give low values. actives 0.27% (n = 130,000);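 active = z-score under -2 on both plates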;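 note: wells of about 30 µL received 100 nL stock; score is relative to mean and SD of the test wells; the first replicate is given; strong numbers were not always called active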
Numbers without * were called inactive; . = no result given. This is a subset; rates above refer to the full screens.

Structure,CapD inh,AID504770
C=C(C)CC1N(c2ccccc2)C(=O)C2C(C(=O)O)C3C=CC21O3 (centres undefined),-0.44,0.4
Cc1ccc2c(c1)c(=O)c1ccccc1n2CC(=O)Nc1ccc(Oc2ccccc2)cc1,-0.21,.
COc1ccc(/C=N/n2c(C)nc3ccccc3c2=O)cc1,.,-1.5
Cc1ccc2nc(COC(=O)c3cccnc3Cl)cc(=O)n2c1,.,0.85
CC(C)c1ccc2c(c1)c1c3n2CCN(CC#N)C3CCC1 (centres undefined),-0.67,2
Oc1ccc2c(c1)C1CCCC1(N1CCOCC1)O2 (centres undefined),4.6,-0.55
C=CCN1C(=O)CSC1=Nc1ccc(O)cc1,-0.08,-0.4
CCCn1c2ccccc2c2nnc(SC(C)C)nc21,-0.32,.
CCc1ccc(NC(=O)c2c(OC)cccc2OC)cc1,-0.19,-0.55
COc1ccc(CCNC(=O)c2ccc3c(c2)OCO3)cc1,.,1.6
Cn1c(CNc2ccccc2)cc(=O)n(C)c1=O,-0.13,-0.35
O=C(CCS(=O)(=O)c1cc2c(cc1Cl)NC(=O)CO2)Nc1cccc(Cl)c1,-0.7,0.8
CCOc1ccc(C2C(C(=O)OC)=CN(Cc3ccc(OC)c(OC)c3)C=C2C(=O)OC)cc1OC,22,.
Cc1cc(C)nc(NN=C2CCCC2)n1,.,-0.45
COc1ccc(CCN2C(=O)CC(N3CCCC(C(F)(F)F)C3)C2=O)cc1 (centres undefined),.,-0.95
CCOc1ccc(-n2c(C)nc3cc(C(=O)N4CCC5(CC4)OCCO5)ccc32)cc1,0.15,.
C#CCSc1nc2ccccc2n1C(=O)c1ccc(S(=O)(=O)N2CCOCC2)cc1,0.68,1.2
O=C(NCC1CCCO1)c1cccc(-c2ccc(O)cc2)c1 (centres undefined),.,-0.45
COc1ccc(OC(C)C(=O)Nc2ccc(N(C)C)cc2)cc1 (centres undefined),0.33,.
CCn1c(CSc2nc3ccccc3s2)nnc1SCC(=O)c1c[nH]c2ccccc12,.,-0.4
NC[C@H]1O[C@H](OC2[C@@H](N)C[C@@H](N)[C@H](O[C@H]3O[C@H](CO)[C@@H](O)[C@H](N)[C@H]3O)[C@H]2O)[C@H](O)[C@@H](O)[C@@H]1O (some centres undefined),.,0.25
FC(F)(F)c1ccc(NCCN2CCOCC2)nc1,0.41,-0.75
O=C(c1cc(-c2ccco2)on1)N(C1CCCCC1)C1CCCCC1,9.6,-0.1
CCOc1ccc(N2C(=O)CC(Sc3nc(C)ccc3C#N)C2=O)cc1 (centres undefined),-0.035,.
CCCc1cc(=O)oc2cc(OC(C(=O)OCC)c3ccccc3)c(Cl)cc12 (centres undefined),-0.39,0.4

Next part, overlapping the part above by 4 compounds.
Structure,CapD inh,AID504770
FC(F)(F)c1ccc(NCCN2CCOCC2)nc1,0.41,-0.75
O=C(c1cc(-c2ccco2)on1)N(C1CCCCC1)C1CCCCC1,9.6,-0.1
CCOc1ccc(N2C(=O)CC(Sc3nc(C)ccc3C#N)C2=O)cc1 (centres undefined),-0.035,.
CCCc1cc(=O)oc2cc(OC(C(=O)OCC)c3ccccc3)c(Cl)cc12 (centres undefined),-0.39,0.4
COc1ccc(CCC(=O)Nc2cccc(C)n2)cc1,0.81,0.25
Cc1c(Br)c(=O)[nH]c(=O)n1Cc1ccccc1,.,-0.85
CC(=O)Nc1ccc2c(c1)C(=O)N(C1CCCCC1)C2=O,28,-0.55
Cn1c(SCC(=O)NCc2ccc(F)cc2)nc2ccccc21,.,-0.2
Oc1ccccc1C=Nc1ccccc1N1CCCCC1,-0.72,-0.55
O=C1CCc2cc(S(=O)(=O)NC3CCCCCC3)cc3c2N1CCC3,.,-0.45
CC1(C)Oc2ccc(C(=O)Nc3ccc4c(c3)CCC4)cc2NC1=O,.,1.2
COc1cc(-c2[nH]nc3c2C(c2ccc(C(F)(F)F)cc2)C(C#N)=C(N)O3)cc(OC)c1OC (centres undefined),-0.13,.
O=C(CN1C(=O)CCSc2ccccc21)NCc1ccccc1,-0.66,-0.7
CN(C(=O)Cn1c(=O)n(CCCC(=O)NCc2ccco2)c(=O)c2sccc21)C1CCCCC1,0.72,-1.6
N#C/C(=C/c1cn(CC(N)=O)c2ccccc12)c1ccc(F)cc1,-0.27,0.7
COc1ccccc1OCc1ccc(C(=O)NC(C)(C)C)o1,2.6,0.65
CCn1c(CNC(=O)N2CCCCC2)nnc1SC,.,-0.1
CCCn1c(CCNC(=O)c2cccc(C)c2)nc2ccccc21,4.9,-0.45
FC(F)(F)c1cccc(CSc2ccc3nnc(Cl)n3n2)c1,0.075,-0.5
COc1cc2c(cc1OC)C(C)N(C(=O)c1cc3c(s1)-c1c(C)cccc1OC3)CC2 (centres undefined),-0.24,0.5
O=S(=O)(Cc1ccccc1)CC(O)COc1ccc(OC(F)(F)F)cc1 (centres undefined),-0.075,0.8
COc1cc(OC)c(Nc2nc(C)nc3sc(C)c(C)c23)cc1Cl,0.46,.
CC(C)C(NS(=O)(=O)c1ccccc1)C(=O)O (centres undefined),-0.04,-1
CC(=O)Nc1c(C(=O)O)oc2ccc(Br)cc12,-0.095,-0.5
CN(C)S(=O)(=O)c1ccc2c(c1)CCN2C(=O)c1cccc(C(F)(F)F)c1,-0.065,.
CC(OC(=O)c1cccc(S(C)(=O)=O)c1)C(=O)Nc1ccccc1C#N (centres undefined),.,-0.05
Cc1cc2c(cc1C)C(Nc1ccc(Cl)cc1)=NC(C)(C)C2,-1.5,.
CCCCOC(=O)CSc1nc(N)c(C#N)c(-c2ccc(OCC)cc2)c1C#N,0.89,.
CC(=O)NC1(c2ccccc2)CCN(CC(=O)Nc2c(C)n[nH]c2C)CC1,.,0.45

Compound profiles, as listed above. Values in the order: CapD inh	AID504770
Listed for `CC(=O)NC1(c2ccccc2)CCN(CC(=O)Nc2c(C)n[nH]c2C)CC1` → .	0.45
Listed for `C=CCN1C(=O)CSC1=Nc1ccc(O)cc1` → -0.08	-0.4
Listed for `COc1ccc(OC(C)C(=O)Nc2ccc(N(C)C)cc2)cc1` (centres undefined) → 0.33	.
Listed for `Cc1cc2c(cc1C)C(Nc1ccc(Cl)cc1)=NC(C)(C)C2` → -1.5	.
Listed for `FC(F)(F)c1cccc(CSc2ccc3nnc(Cl)n3n2)c1` → 0.075	-0.5

Continuation:
Structure,CapD inh,AID504770
CN(C)C=NC(=S)c1ccc(-c2cccs2)s1,65,1.2
CCOc1ccccc1N1Cc2ccccc2C1,0.09,0.75
Cc1ccc(S(=O)(=O)N(C)c2ccc3sc(C)nc3c2)cc1,.,1.1
Cc1ccc(C)c(OCC(=O)Nc2ccc(-c3nnc(-c4ccco4)o3)cc2)c1,27,-0.95
Cc1ccc(NCc2nc3ccccc3n2C)c(C)c1,13,-0.65
CC1=C(C(=O)OCC2CCCO2)C(c2coc3ccccc3c2=O)C2=C(CCCC2=O)N1 (centres undefined),-0.27,.
N#Cc1cn(Cc2ccccc2)nn1,0.48,1.1
NCCNC12CC3CC(CC(C3)C1)C2,0.72,-0.55
Cc1cc(C)n(CC(=O)NN=C2CCCCCC2)n1,.,0
O=C(Cc1ccc(-n2c(=O)[nH]c3ccsc3c2=O)cc1)Nc1ccccc1,0.19,-0.4
COc1cc(NC(=O)/C=C/c2ccccc2Cl)c(OC)cc1Cl,-0.45,0
O=S1(=O)CC(N2CCCC2)c2ccccc21 (centres undefined),-0.11,-0.3
COC(=O)C1=C(c2ccccc2)Nc2ncnn2C1c1ccccc1F (centres undefined),-0.95,-0.8
CCOc1ccc2[nH]c(=O)c(CN(Cc3ccccc3)C(=O)N3CCOCC3)cc2c1,.,0.8
Cc1ccc(C2C(C#N)=C(SCC(=O)N3c4ccccc4CC3C)NC3=C2C(=O)CCC3)o1 (centres undefined),0.67,-0.3
CC(=O)N(CC(=O)O)c1ccccc1,.,0.15
O=C1CC(Sc2ncc(C(F)(F)F)cc2Cl)C(=O)N1c1ccccc1 (centres undefined),-0.21,.
COc1ccc(-c2cn3nc(C)c(C)nc3n2)cc1,-0.79,.
Cn1cnc2c(=O)oc3ccc(S(=O)(=O)N4CCCCC4c4cccnc4)cc3c21 (centres undefined),-0.22,-1.5
COc1ccccc1C1CC(c2ccc(Br)cc2)=NN1C(=O)c1ccncc1 (centres undefined),2.3,.
COC(=O)Cn1c(=O)c2c(n(Cc3ccccc3)c1=O)NCC2=O,.,2.3
CC(C)(C)c1cc2nc(C(F)(F)F)cc(N3CCN(C(=O)OCCN4CCN(Cc5ccc6ccccc6c5)CC4)CC3)n2n1,40,.
Fc1ccc2nc(Nc3nc4ccccc4s3)sc2c1,.,-0.15
O=C1NC(=O)/C(=C\c2cccs2)S1,.,1.3
CC(C)(C#N)NC(=O)C1Cc2ccccc2CN1S(=O)(=O)c1ccc(F)cc1 (centres undefined),1,0.3

Remaining list, next part.
Structure,CapD inh,AID504770
CCOC(=O)C1=C(C)N=c2s/c(=C\c3ccc(-c4ccc(C(=O)O)cc4)o3)c(=O)n2C1c1cccs1 (centres undefined),0.94,.
CCCc1ccc(S(=O)(=O)N2CCNCC2)cc1,.,-0.35
O=[N+]([O-])c1ccc2c(c1)C1OC(c3ccccc3)(c3ccccc3)c3ccccc3N1CO2 (centres undefined),6.2,.
Cc1cc(C)nc(NS(=O)(=O)c2ccc(NC(=O)c3ccccc3C)cc2)n1,-0.05,.
COc1ccc(NC(=O)c2ccc(OC)nc2OC)cc1,0.49,0.85
CN=C1SC(CC(=O)Nc2ccccc2OC)C(=O)N1C (centres undefined),-0.26,.
Cc1ccc(C)c(/C(O)=C2\C(=O)C(=O)N(CCCn3ccnc3)C2c2cccnc2)c1 (centres undefined),-2.5,-1
Cc1cc(NC(=O)C(C)n2sc3ccccc3c2=O)ccc1Br (centres undefined),-0.52,0.35
CCOC(=O)C1=C(O)/C(=C\c2ccc(N(C)C)cc2)SC1=Nc1ccc(Cl)cc1,-0.075,.
O=C(CC1SC(N2N=C(c3ccccc3)CC2c2ccccc2)=NC1=O)Nc1ccccc1 (centres undefined),-0.075,-1.2
COc1ccccc1NC(=O)N1CCN(c2cc(-c3ccccc3)nc3ncnn23)CC1,.,-0.7
CCC(O)(C#CCN1CCOCC1)CC,-0.44,-0.85
Cc1cc2c3c(ccc(N)c3n1)C(=O)c1ccccc1-2,-0.25,.
CCN(Cc1ccccc1)C(C)=O,-0.34,-0.05
CCN(CC)c1ccc(C(=O)NCCN)cc1,.,2
Cc1nc2ccc(S(=O)(=O)NCC(=O)NCc3ccccc3)cc2s1,-0.31,-0.35
CN(C(=O)COC(=O)c1ccc(Cl)nc1)c1ccccc1,.,-0.75
Cn1c(CN2CCOCC2)nnc1Sc1c(-c2ccccc2)c2ccccc2[nH]c1=O,.,-0.45
O=C1Nc2ccccc2C(O)(C(=O)N2CCC3(CC2)OCCO3)N1c1ccccc1 (centres undefined),-0.68,0.4
Cc1ccc(S(=O)(=O)c2nc(-c3ccco3)oc2SCc2ccccc2F)cc1,24,0.25
Nc1nc2ccccc2n1CCN1CCCCC1,-0.29,0.2
CCOC(=O)C(C)Sc1nc(-c2ccc(OC)cc2)c(C#N)c(=O)[nH]1 (centres undefined),2.3,1.2
CN1C2CC(=O)CC1C(O)C2 (centres undefined),2.1,.
O=C(Cc1ccccc1)Nc1cccc(Cl)c1,-0.28,1.5
O=C(Oc1ccc(-c2noc(-c3ccc(OC(=O)c4cccnc4)cc3)n2)cc1)c1cccnc1,0.38,.

Following part
Structure,CapD inh,AID504770
Cc1cc2cc(CNC(=O)Cc3cccc4ccccc34)ccc2n1C,69,1.9
O=S1(=O)CCC(N=Cc2cn(-c3ccccc3)nc2-c2ccccc2)C1 (centres undefined),-0.88,-0.9
CCOC(=O)CSc1nc2c(c(C3CC=CCC3)c1C#N)CCC2 (centres undefined),0.22,-1.2
Cc1nc2c(sc3nc4c(c(-c5ccco5)c32)CCCC4)c(=O)o1,2.5,1.3
CN(C)c1nc(N(C)C)nc(N2CC(=O)N(N)C2=N)n1,.,0.35
CCOC(=O)c1ccccc1NC(=S)N(C)Cc1ccccc1,0.12,0.7
CCOc1ccccc1N=C1S/C(=C\c2ccc(N(C)C)cc2)C(=O)N1CCN1CCOCC1,.,0.3
CC1=C(C(=O)Nc2cc(C)ccn2)C(c2ccc(C)cc2)C2=C(CCCC2=O)N1 (centres undefined),38,-0.6
O=C(NCc1cccs1)C1CCC(=O)N1C1CCCC1 (centres undefined),-0.73,-0.7
COc1nc(C)ccc1-c1noc(-c2ccccc2)n1,.,1.1
COc1ccc(NC(=O)CC2SC3=NCCN3C2=O)cc1 (centres undefined),0.085,-1.1
Cc1cccc(NC(=O)CC(c2ccccc2)c2ccccc2)n1,-0.1,-0.3
CC(C)N1CC2(c3ccccc3)CN(C(C)C)CC(c3ccccc3)(C1)C2O (centres undefined),-0.025,-0.5
C/C(=N\O)c1sc(-c2ccc(Cl)cc2)nc1C,-0.42,-0.85
O=C(CSc1ncnc2sc3c(c12)CCCC3)c1ccc2c(c1)OCO2,-1.3,.
CCOC(=O)Cc1csc(NC(=O)CN2C(=O)c3ccccc3C2=O)n1,-0.42,-0.1
O=C(Nc1ccc(SC(F)(F)F)cc1)c1ccccn1,-0.36,-0.65
COc1ccc(NC(=O)CCCn2nnc3ccccc3c2=O)cc1,0.48,0.5
Cc1ccc(N=Cc2ccc(Br)s2)c(C)c1,-1.6,-1.8
O=C(c1cccc(S(=O)(=O)Nc2ccccn2)c1)N1CCCc2ccccc21,0.98,0.15

Compound activity from PubChem.
